APJ antag – APJ receptor antagonism; 330,000 tested, 0.32% active; inhibition, % at 20 µM; CHO-K1 APJ beta-arrestin complementation, luminescence;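 active = inhibition above about 40% at 20 µM, limit read from the data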;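 note: cells challenged with 10 nM apelin-13 agonist together with compound; plate controls were apelin-13 plus DMSO wells for no effect and DMSO wells lacking apelin-13 for full effect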
Target sequence (P35414 whole entry, looked up): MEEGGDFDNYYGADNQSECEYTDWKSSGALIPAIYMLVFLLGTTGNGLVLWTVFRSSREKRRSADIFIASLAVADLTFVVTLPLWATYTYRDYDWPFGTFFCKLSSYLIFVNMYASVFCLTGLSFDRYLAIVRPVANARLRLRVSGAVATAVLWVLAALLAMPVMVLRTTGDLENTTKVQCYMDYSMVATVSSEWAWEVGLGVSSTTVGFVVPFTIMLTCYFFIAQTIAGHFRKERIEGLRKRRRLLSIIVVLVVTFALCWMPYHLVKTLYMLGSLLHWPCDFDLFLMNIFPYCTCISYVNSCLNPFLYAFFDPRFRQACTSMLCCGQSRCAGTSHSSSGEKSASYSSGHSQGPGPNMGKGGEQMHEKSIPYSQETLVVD
tim10-1 inh – inhibits growth of tim10-1 mutant yeast; S. cerevisiae tim10-1 ts strain growth, BacTiter-Glo, 24 h; inhibition, % at 20 µM; AID 463190; 330,000 tested, 2.2% active;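 active = inhibition of at least 40%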;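 note: mutant grown at 25 °C; 0% = DMSO wells with yeast and 100% = wells holding no yeast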
NALP3 yeast inh – inhibitors of NALP3 inflammasome in yeast | Yeast reconstituted NLRP3/ASC/caspase-1, beta-gal luminescence, 24 h | inhibition, % at 10 µM | 330,000 tested, 0.39% active | AID 2825;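 active = inhibition of 50% or more; inactive = inhibition below 50%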;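 note: plate controls were induced DMSO wells for no effect and uninduced yeast grown without galactose for full effect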
beta cell repl – induces beta-cell replication in MIN6 cells; MIN6 cells proliferation, ATPlite luminescence, 48 h; cells starved in 0.2% serum; 100% = growth in 10% serum; proliferation, % at 10 µM; 330,000 tested, 0.29% active; AID 2380;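 active = compounds whose signal lies at least 3.5 SD above the mean of all wells on their plate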;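 note: 0% = DMSO-treated cells in low-serum medium and 100% = 10% serum control; some compounds called inactive have numbers as strong as hits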
TIM10 inh – TIM10 yeast growth inhibition; 330,000 tested, 1.4% active; inhibition, % at 10 µM; S. cerevisiae TIM10 strain growth, BacTiter-Glo luminescence, 24 h;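 active = inhibition of 40% or more at the single tested concentration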;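 note: wild-type TIM10 isogenic control strain grown at permissive 25 °C; 0% = DMSO yeast wells and 100% = minimal medium wells without yeast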
tim23-1 inh – growth inhibitors of tim23-1 mutant yeast; S. cerevisiae tim23-1 growth, BacTiter-Glo luminescence, 24 h; inhibition, % at 20 µM; 330,000 tested, 1.3% active; AID 463212;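 active = growth inhibition of the mutant yeast at or above 50%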;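 note: temperature-sensitive mutant grown at 25 °C; plate controls were DMSO-treated mutant yeast for no effect and medium wells lacking yeast for full effect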
NR3A LBD binder – NR3A (human) ligand-binding domain modulation. Tm shift relative to glycine control, % at 25 µM. NR3A LBD differential scanning fluorimetry, Tm shift; 0% = protein alone, 100% = glycine-bound protein. 340,000 tested, 2.5% active;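 active = melting temperature shift of at least 10% of the positive control shift, at one fixed dose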
APJ agonist – activates the human apelin receptor APJ; P35414; CHO-K1 APJ PathHunter beta-arrestin, luminescence; 0% DMSO wells, 100% apelin; activation, % at 20 µM; 330,000 tested, 0.11% active;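 active = activation more than six SD over the plate average, tested at 20 µM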;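 note: 0% = DMSO alone and 100% = apelin-13 at 10 nM; some results filed as inactive read as strong as hits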
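Assay system: CHO-K1 cells stably expressing ProLink-tagged human APJ and arrestin–beta-gal acceptor. Compound dosing: 20 µM single point, 1% DMSO. Times: 16-18 h seeding, 90 min dark compound exposure, 60 min detection. Detection: beta-gal luminescence. Evaluation: APJ–arrestin association signal. Controls: negative DMSO alone, positive Apelin-13 at 10 nM.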
* = called active by the depositor; · = no result given; & = joins results of further samples. This is a subset (hit frequency here may not be typical).

nr	Molecule	tim10-1 inh	tim23-1 inh	APJ antag	NR3A LBD binder	APJ agonist	NALP3 yeast inh	TIM10 inh	beta cell repl
1	O=C(CCCn1c(=S)[nH]c2cc3c(cc2c1=O)OCO3)N1CCN(c2ccc(Cl)cc2)CC1	29	-14	-5	3	-1	10	10	-5
2	CS(=O)(=O)n1nc(-c2ccccc2)nc1N	-3	1	1	1	-1	-1	-16	-1
3	Cn1c(SCC(=O)Nc2ccc(C(=O)O)cc2)nc2scc(-c3ccccc3Cl)c2c1=O	-2	-1	0	-2	-5	4	1	0
4	O=C(Cn1cncn1)NCc1ccccc1Br	0	21	4	-5	-1	15	-1	2
5	Cn1nc(C(=O)NNC(=O)c2ccc(Cl)cc2)ccc1=O	11	8	-5	1	6	17	2	-4
6	COc1ccccc1CN1C[C@@H]2C[C@@H](c3ccc(C)c(C)c3)N3CCC[C@@]23C1=O	16	23	-1	-1	-4	20	15	-2
7	CN(C)C(CNc1nnnn1-c1ccccc1)c1ccco1 (stereo not given)	20	-9	-15	-2	1	3	-10	0
8	NC(=O)CC(NC(=O)Cc1ccc(Br)cc1)c1ccc(NCCc2ccc(Cl)cc2)c([N+](=O)[O-])c1 (stereo not given)	13	-8	21	-14	-3	19	-5	-7
9	O=C(O)COc1ccc(/C=C/c2nc3ccc([N+](=O)[O-])cc3s2)cc1	4	-3	-2	-1	0	20	10	-1
10	COc1cc(CN2CCc3ccccc3C2)ccc1O	-5	5	-1	2	-2	15	9	-6
11	CC[C@H](C)[C@H]1O[C@]2(CC[C@@H]1C)C[C@@H]1C[C@@H](CC=C(C)[C@@H](O[C@H]3C[C@H](OC)[C@@H](O[C@H]4C[C@H](OC)[C@@H](O)[C@H](C)O4)[C@H](C)O3)[C@@H](C)C=CC=C3CO[C@@H]4[C@H](O)C(C)=C[C@@H](C(=O)O1)[C@]34O)O2	30	17	2	-2	1	9	4	-8
12	Fc1ccc(N2CCN(Cc3ccccn3)CC2)cc1	-1	-7	9	-1	-4	-1	5	-1
13	CN(C)c1ccc(O)c2c1CC1CC3C(N(C)C)C(=O)C(C(N)=O)=C(O)[C@@]3(O)C(=O)C1=C2O (stereo not given in full)	-6	7	16	-2	-4	21	-1	-3
14	Cc1cccc(NC(=O)c2cc(-c3ccc(C)c(C)c3O)n[nH]2)c1	-6	-1	11	35*	-4	14	-19	-3
15	COC(=O)c1ccc(CNC(=O)CSc2nc3sc(C)c(C)c3c(=O)n2C)o1	9	-1	13	-1	-5	1	3	-2
16	COC(=O)c1[nH]c2ccc(C)cc2c1NC(=O)CN1CCN(Cc2ccccc2)CC1	16	13	1	2	-4	7	11	0
17	O=C(Cn1cccc1)NCc1cccs1	-7	10	-22	0	-1	10	1	-2
18	O=C(CSc1nc(-c2cccs2)cc(C(F)(F)F)n1)NCCCn1ccnc1	1	9	-3	7	6	15	0	-3
19	CCCCCCCC[n+]1c(C)n(-c2ccccc2)c2ccc(NC(C)=O)cc21	21	5	3	1	-5	-3	13	-6
20	O=C1C2C3C=CC(CC3)C2C(=O)N1c1cccc(C(F)(F)F)c1 (stereo not given)	9	20	11	4	2	13	0	1
21	CC1(C)[C@H](C(=O)O)N2C(=O)C[C@H]2S1(=O)=O	-20	1	-45	-2	-1	5	5	-4
22	O=C1OC(/C=C/c2ccccc2)=NC/1=C/C=C/c1ccccc1	15	29	3	-32	0	15	29	0
23	COc1ccccc1N1CCN(CCCCNC(=O)c2ccc3ccccc3c2)CC1	8	-6	·	0	·	18	8	-5
24	COc1ccc(OCC(=O)NNC(=O)c2ccccn2)cc1	8	10	-11	-1	6	5	-5	-3
25	COCC(C)n1c(C)cc(C(=O)CSc2ncccn2)c1C (stereo not given)	17	17	-14	2	1	-3	-3	-1

Sorted by the number under APJ antag (low to high): some entries from above
nr | Molecule | tim10-1 inh | APJ antag | NR3A LBD binder | NALP3 yeast inh
25 | COCC(C)n1c(C)cc(C(=O)CSc2ncccn2)c1C (stereo not given) | 17 | -14 | 2 | -3
16 | COC(=O)c1[nH]c2ccc(C)cc2c1NC(=O)CN1CCN(Cc2ccccc2)CC1 | 16 | 1 | 2 | 7
4 | O=C(Cn1cncn1)NCc1ccccc1Br | 0 | 4 | -5 | 15
20 | O=C1C2C3C=CC(CC3)C2C(=O)N1c1cccc(C(F)(F)F)c1 (stereo not given) | 9 | 11 | 4 | 13

Further entries follow:
nr	Molecule	tim10-1 inh	tim23-1 inh	APJ antag	NR3A LBD binder	APJ agonist	NALP3 yeast inh	TIM10 inh	beta cell repl
26	O=S(=O)(c1ccccc1)N1CCN(S(=O)(=O)c2ccccc2)c2ccccc21	·	·	·	0	·	·	·	·
27	CCN1CCCC1CNC(=O)c1ccc2c(c1)NC(=O)/C(=C\c1ccc(OC)c(OC)c1)S2 (stereo not given)	-5	-2	22	-2	1	2	10	-5
28	N#Cc1cc2c(nc1SCC(=O)O)CCCC2	4	12	-9	0	4	0	-5	-3
29	CC(/C=C/c1ccc2c(c1)OCO2)=N/NC(=O)COc1ccc(C)cc1	1	-6	-2	4	-2	21	-10	0
30	CC(C)CC(=O)NC1(C(F)(F)F)C(=O)N(CC(C)C)C2=C1C(=O)CC(C)(C)C2 (stereo not given)	-5	9	15	1	-3	6	-16	-1
31	COc1ccc(C2NC3=C(CCC3)C3(C#N)C(OC)(OC)N=C(N)C23C#N)cc1 (stereo not given)	5	-2	-5	-1	3	10	-5	-1
32	CCC1CCCCN1C(=O)Cn1nc([N+](=O)[O-])c(Cl)c1C (stereo not given)	0	16	-2	-4	-5	8	2	-4
33	CC(=O)Nc1ccc(S(=O)(=O)NCCN2CCOCC2)cc1	4	11	9	0	-3	-3	-6	-1
34	CCN=C1S/C(=C\c2ccc(N3CCOCC3)cc2C)C(=O)N1CC	23	18	4	0	-3	14	28	0
35	Cc1cc(C)nc(NS(=O)(=O)c2ccc(N3C(=O)C4C5C=CC(C5)C4C3=O)cc2)n1 (stereo not given)	4	-11	19	1	0	12	-1	2
36	CCNC(=O)C1CC(=O)N(CC)C(=Nc2cc(Cl)c(O)c(Cl)c2)S1 (stereo not given)	5	9	15	-1	-5	-7	16	4
37	COc1ccc(/C=C2\N=C(SC)SC2=O)cc1OC	20	-4	7	-28	-6	6	5	-4
38	CCN(CC(=O)Nc1ccc2c(c1)OCO2)S(=O)(=O)c1ccccc1	-1	5	7	-1	-2	13	1	-2
39	COc1ccc(OC)c(S(=O)(=O)NC(C)CCc2ccccc2)c1 (stereo not given)	22	32	8	-1	-4	6	-5	-2
40	CC(=O)NCCOc1nc(N2CCCCC2)nc(N2CCCCC2)n1	20	19	11	0	-1	3	9	0
41	CC(/C=N/NC(=O)c1n[nH]c2c1CCC2)=C\c1ccccc1	-3	1	-8	-23	-4	10	-3	-5
42	COc1cc2c(cc1OC)C1C(=O)c3cc(OS(C)(=O)=O)c(OC)cc3C1N(C)C2=O (stereo not given)	·	·	·	-2	·	·	·	·
43	CC/C(=C(\c1ccccc1)c1ccc(OCCN(C)C)cc1)c1ccccc1	33	43	17	-1&1	-5	41	29	-8
44	O=C(c1ccccn1)N1CC=C(c2ccccc2)CC1	·	·	·	-1	·	·	·	·
45	COc1ccc(Cl)cc1NC(=O)C1CCCN(c2cc(C)nc3ncnn23)C1 (stereo not given)	14	28	15	-5	0	23	21	0
46	Cc1cccc(N2CC(C(=O)NCc3ccco3)CC2=O)c1C (stereo not given)	-5	8	-2	2	-5	13	4	-2
47	CC1C(=O)N2CCCc3cc(S(=O)(=O)NCc4ccccc4Cl)cc1c32 (stereo not given)	22	17	7	2	-3	12	-3	-3
48	Cc1noc(C(=O)Nc2cccc(O)c2)c1Cl	-20	3	-9	-2	0	2	-3	-2
49	Cc1ccccc1NC(=O)CCC(=O)N/N=C/c1cccnc1	5	1	14	-2	-6	21	7	0
50	CC(=O)c1sc(NC(=O)C2CCN(C(=O)c3ccc(F)cc3)CC2)nc1-c1ccccc1	20	12	26	-9	-8	-11	18	-4

Molecules from the list above that contain a cyano group:
nr	Molecule	tim10-1 inh	tim23-1 inh	APJ antag	NR3A LBD binder	APJ agonist	NALP3 yeast inh	TIM10 inh	beta cell repl
28	N#Cc1cc2c(nc1SCC(=O)O)CCCC2	4	12	-9	0	4	0	-5	-3
31	COc1ccc(C2NC3=C(CCC3)C3(C#N)C(OC)(OC)N=C(N)C23C#N)cc1 (stereo not given)	5	-2	-5	-1	3	10	-5	-1

Fetched by compound from the list above (6):
nr	Molecule	tim10-1 inh	tim23-1 inh	APJ antag	NR3A LBD binder	APJ agonist	NALP3 yeast inh	TIM10 inh	beta cell repl
38	CCN(CC(=O)Nc1ccc2c(c1)OCO2)S(=O)(=O)c1ccccc1	-1	5	7	-1	-2	13	1	-2
48	Cc1noc(C(=O)Nc2cccc(O)c2)c1Cl	-20	3	-9	-2	0	2	-3	-2
11	CC[C@H](C)[C@H]1O[C@]2(CC[C@@H]1C)C[C@@H]1C[C@@H](CC=C(C)[C@@H](O[C@H]3C[C@H](OC)[C@@H](O[C@H]4C[C@H](OC)[C@@H](O)[C@H](C)O4)[C@H](C)O3)[C@@H](C)C=CC=C3CO[C@@H]4[C@H](O)C(C)=C[C@@H](C(=O)O1)[C@]34O)O2	30	17	2	-2	1	9	4	-8
9	O=C(O)COc1ccc(/C=C/c2nc3ccc([N+](=O)[O-])cc3s2)cc1	4	-3	-2	-1	0	20	10	-1
31	COc1ccc(C2NC3=C(CCC3)C3(C#N)C(OC)(OC)N=C(N)C23C#N)cc1 (stereo not given)	5	-2	-5	-1	3	10	-5	-1
40	CC(=O)NCCOc1nc(N2CCCCC2)nc(N2CCCCC2)n1	20	19	11	0	-1	3	9	0

Further entries:
nr	Molecule	tim10-1 inh	tim23-1 inh	APJ antag	NR3A LBD binder	APJ agonist	NALP3 yeast inh	TIM10 inh	beta cell repl
51	Cc1ccc(S(=O)(=O)CCC(=O)Nc2cccc(S(=O)(=O)N3CCCCCC3)c2)cc1	6	7	-3	-2	-3	12	2	-4
52	CCOC(=O)N1CCN(C(=O)C2CCN(S(=O)(=O)N3CCC4(CC3)OCCO4)CC2)CC1	-4	-26	19	-3	0	16	3	-2
53	FC(F)(F)c1cc(-c2ccccc2)nc(N2CCOCC2)n1	12	-7	4	3	1	28	-5	-2
54	O=C(NC1CCCCC1)N1CCN(c2ccccc2Cl)CC1	19	29	-2	0	4	30	12	3
55	O=C(CSc1n[nH]c(-c2ccccc2O)n1)N1CCOCC1	-10	13	0	0	-3	13	7	-5
